Screening data (PubChem BioAssay)
LANA-H2B inh = blocks KSHV LANA binding to histone H2A/H2B. Q9QR71. cell-free LANA-H2A/H2B peptide, fluorescence polarization. inhibition, % (concentration not given with the values). 320,000 compounds, 0.6% hits; in the data active = inhibition mostly above about 10%, no sharp cut-off; inactive = mostly below about 6.7%;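 also: stock transfer was 7.5 nL into about 10 µL; 0% = median of vehicle wells and 100% = median of positive control wells; one replicate is shown; the record names a cut of 25% in any replicate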
FGF22 binding = shifts melting point of recombinant human FGF22. 340,000 compounds, 1.5% hits. calls only at 9.99 µM. recombinant FGF22 thermal shift, SYPRO orange fluorescence; percent of sucrose octasulfate shift, DMSO zero;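 active = melting point raised past a set limit in the mean and every replicate; inconclusive = no clear call; three in four hits are not shown here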
Target sequence (Q9HCT0 whole entry, looked up): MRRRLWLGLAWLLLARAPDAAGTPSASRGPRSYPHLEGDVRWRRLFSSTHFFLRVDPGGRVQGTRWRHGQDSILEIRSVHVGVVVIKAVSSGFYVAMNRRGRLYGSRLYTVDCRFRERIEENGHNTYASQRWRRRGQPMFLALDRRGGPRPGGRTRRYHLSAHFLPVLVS
ALR inh = human ALR oxidase inhibition via reduced H2O2 | P55789 | purified ALR, DTT oxidation, H2O2 HRP-luminol luminescence | inhibition, % (concentration not given with the values) | 290,000 compounds, 3.8% hits | AID 485317;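 active = mean and each replicate at 75% or more; inconclusive = only one of the two met; inactive = neither met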;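 also: stock transfer was 7.5 nL into about 7.5 µL; 0% = neutral wells and 100% = wells with inactivated enzyme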
Target sequence (P55789 whole entry, looked up): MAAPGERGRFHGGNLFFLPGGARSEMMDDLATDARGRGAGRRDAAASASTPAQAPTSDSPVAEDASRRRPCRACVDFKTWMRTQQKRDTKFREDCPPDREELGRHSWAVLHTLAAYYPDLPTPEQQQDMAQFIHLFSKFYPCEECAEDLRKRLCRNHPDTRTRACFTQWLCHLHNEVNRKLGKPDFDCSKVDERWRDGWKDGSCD
E coli growth = E. coli growth inhibition; Escherichia coli growth, OD600, 23 h; hits give low values; 330,000 compounds, 0.21% hits; AID 1053175; OD600 absorbance (concentration not given with the values);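 active = OD600 absorbance below the run mean of sample wells minus 3.6 SD, in any replicate, cut at about 0.56 in these data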;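 also: stock transfer was 300 nL into about 60 µL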
HNF4A DNA FP = change in binding of human HNF4 alpha to DNA. P41235. HNF4a-FITC DNA binding, fluorescence polarization, 1 h. activity change, % at 10 µM. 360,000 compounds, 0.3% hits; in the data active = activity change above about 30%, passing the limit was not always enough;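 also: controls were the assay level and a saturating level of protein; the project sought stronger binding though the title names inhibitors; some compounds called inactive have numbers as strong as hits; positive values seem to mean higher polarization but the record does not say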
UCH37 DUB inh = inhibitors of human deubiquitinating enzyme UCH37; Q9Y5K5; purified proteasome/UCH37, Ub-AMC cleavage fluorescence; inhibition, % (test concentration not listed); 330,000 compounds, 0.33% hits; AID 588478;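 active = mean of two replicates above 20%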;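 also: 0% = compound-free wells with enzyme and 100% = wells lacking proteasome; stock transfer was 100 nL into about 20 µL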
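Reagent: Ub-AMC substrate; assay system: Proteasome-associated human UCH37 deubiquitinase; controls: no-proteasome and no-compound wells; read-out: % inhibition of Ub-AMC cleavage fluorescence; timing: 30 min preincubation with enzyme, 25 min cleavage at room temperature; signal: AMC fluorescence from Ub-AMC cleavage, excitation 355 nm, emission 460 nm; buffer or medium: Tris-HCl pH 7.4 plus ovalbumin, ATP-MgCl2, DTT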
Beta2AR agonist = human beta-2 adrenergic receptor agonism by FAP. P07550. Am2.2-beta2AR cells, FAP receptor internalization, flow cytometry; reference of the scale not given here. response, % (test concentration not listed). 340,000 compounds, 0.43% hits. AID 504454;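 active = response above a set limit, near 3 SD of response in nonfluorescent compounds, cut at about 42% in these data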;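 also: stock transfer was 100 nL into about 11 µL; a reference agonist was the positive control; negative values mostly stem from fluorescent compounds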
Target sequence (P07550 whole entry, looked up): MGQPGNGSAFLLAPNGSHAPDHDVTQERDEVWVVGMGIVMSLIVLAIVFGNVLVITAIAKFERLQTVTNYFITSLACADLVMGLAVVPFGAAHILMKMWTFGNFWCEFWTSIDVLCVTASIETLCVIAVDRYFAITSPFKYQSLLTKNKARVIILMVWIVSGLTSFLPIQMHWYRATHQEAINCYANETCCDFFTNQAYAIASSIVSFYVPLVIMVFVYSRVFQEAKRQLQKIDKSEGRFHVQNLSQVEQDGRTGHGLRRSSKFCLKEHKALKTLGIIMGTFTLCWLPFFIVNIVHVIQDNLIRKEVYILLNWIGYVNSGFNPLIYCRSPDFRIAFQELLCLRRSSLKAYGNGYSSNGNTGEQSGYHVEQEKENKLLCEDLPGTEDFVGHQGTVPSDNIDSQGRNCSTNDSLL
An asterisk follows results filed as active; i = inactive; ? = inconclusive; / = not tested or not shown. This is a subset; count on the stated rates, not on these rows.

SMILES	E coli growth	ALR inh	LANA-H2B inh	HNF4A DNA FP	UCH37 DUB inh	Beta2AR agonist	FGF22 binding
O=C(CCNC(=O)c1ccccc1Cl)NN1C(=O)NC2(CCCCC2)C1=O	0.69	-9	1.0	1.9	-1.7	-2	i
CCc1nnc(NC(=O)CSc2ccc(Cl)cc2)s1	0.65	-6	-1.0	3.2	1.2	1	i
COc1cccc(-c2cc(C(=O)N3CCN(C(=O)c4ccco4)CC3)on2)c1	0.7	5	5.1	1.8	2.9	-14	i
O=C(CSc1nnc(CNC(=O)c2ccccc2)o1)NCc1ccc2c(c1)OCO2	0.67	8	-6.8	-0.4	-0.6	2	i
Cn1c(SCC(=O)N2CCN(S(=O)(=O)c3ccc(Cl)cc3)CC2)nc2ccccc21	0.73	-5	-4.2	-2.4	1.4	-2	/
COCCNC(=S)NN(c1ccccc1)c1ccccc1	0.67	82*	-3.7	0.7	-0.6	1	i
CCCCOc1ccc(-c2nnn(C(C)(C)C(=O)OC)n2)cc1	0.69	-15	-2.5	1.3	-0.5	-3	/
CCOC(=O)C1=CNS(=O)(=O)NC1CCc1ccccc1 (stereo unspecified)	0.68	/	/	-0.7	-3.4	-8	i
O=[N+]([O-])c1ccccc1S(=O)(=O)N1CCSCC1	0.7	/	-2.7	-2.6	5.1	-6	i
COc1ccc(Cl)cc1NS(=O)(=O)c1cccc(C(=O)NCC(c2ccco2)N(C)C)c1 (stereo unspecified)	0.66	1	-5.0	4.6	1.5	4	i
COc1ccc(CC(=O)NCc2ccccc2)cc1	0.68	2	-0.8	1.5	1.4	-6	i
Cc1cc(=O)nc2c3ccccc3n(C(C)C(=O)NCCC(C)C)n12 (stereo unspecified)	0.7	/	2.9	1.4	1.9	23	i
Cc1noc(C)c1CSCC(=O)N(CC(C)C)c1c(N)n(Cc2ccccc2)c(=O)[nH]c1=O	0.71	-16	-1.5	3.0	5.7	9	i
COc1ccc(C(CNC(=O)COc2ccc(F)cc2Cl)N2CCOCC2)cc1 (stereo unspecified)	0.69	/	/	-2.3	-0.2	-24	i
O=C(CSc1ccc(Cl)cc1)Nc1ccc(N2CCN(C(=O)c3ccc(Cl)cc3)CC2)cc1	0.77	-4	-1.4	3.5	4.3	0	/
CSCC[C@H](NC(=O)c1cccs1)C(=O)N1CCC2(CC1)NCCc1[nH]cnc12	0.66	-17	-3.2	7.8	0.9	-1	i
CCN(CC)CCNc1ncnc2c1[nH]c1ccc(OC)cc12	0.68	-3	-4.5	/	-20	/	/
COc1cccc(NC(=O)CN(C)C(=O)c2c(-c3c(F)cccc3Cl)noc2C)c1	0.65	-1	3.7	0.1	-1.1	0	i
CCCCn1c(NCc2ccccn2)nc2ccccc21	0.69	?	0.0	-2.5	5.1	-1	/
CC(C)c1cc(N=O)cc(C(C)C)c1O	/	/	/	-1.6	/	11	i

One compound at a time, as listed above:
Entry for CCOC(=O)C1=CNS(=O)(=O)NC1CCc1ccccc1 (stereo unspecified) → E coli growth: 0.68; ALR inh: /; LANA-H2B inh: /; HNF4A DNA FP: -0.7; UCH37 DUB inh: -3.4; Beta2AR agonist: -8; FGF22 binding: i
Entry for O=[N+]([O-])c1ccccc1S(=O)(=O)N1CCSCC1 → E coli growth: 0.7; ALR inh: /; LANA-H2B inh: -2.7; HNF4A DNA FP: -2.6; UCH37 DUB inh: 5.1; Beta2AR agonist: -6; FGF22 binding: i
Entry for COCCNC(=S)NN(c1ccccc1)c1ccccc1 → E coli growth: 0.67; ALR inh: 82*; LANA-H2B inh: -3.7; HNF4A DNA FP: 0.7; UCH37 DUB inh: -0.6; Beta2AR agonist: 1; FGF22 binding: i

Following part
SMILES	E coli growth	ALR inh	LANA-H2B inh	HNF4A DNA FP	UCH37 DUB inh	Beta2AR agonist	FGF22 binding
CC(C)[C@H](NC(=O)C1CC(=O)N(c2ccc3c(c2)OCO3)C1)C(=O)NC1CCCC1 (stereo partly specified)	0.71	-2	1.9	-19	5.5	-1	i
O=C(NC1CCN(Cc2ccccc2)CC1)c1cc(S(=O)(=O)N2CCOCC2)ccc1Cl	0.72	/	/	3.5	0.8	-13	i
COC(=O)c1sc2nc(-c3ccccc3)nc(N3CCN(C)CC3)c2c1C	0.69	/	/	-0.4	-29	12	/
CC(=O)NCc1c(Cl)cccc1-n1cccc1	0.69	1	-2.2	0.7	0.3	8	/
Cn1cnnc1SCC(=O)c1cccc([N+](=O)[O-])c1	0.69	83*	-6.4	1.3	5.0	2	/
C=C(C)CN(CC)C(=O)c1ccc(OC2CCN(S(=O)(=O)N(C)C)CC2)cc1	0.68	-17	-4.1	-0.7	1.2	-15	i
CC(OC(=O)c1ccc(Cl)nc1)C(=O)NCc1ccc2c(c1)OCO2 (stereo unspecified)	0.6	4	3.6	-2.8	2.3	1	i
COc1ccc(CN2CCNC(=O)C2CC(=O)NCCCC2CCCC2)c(C)c1C (stereo unspecified)	0.71	2	1.7	5.2	1.9	0	i
O=C(OC(C(=O)c1c[nH]c2ccccc12)c1ccccc1)c1cnccn1 (stereo unspecified)	0.68	3	1.4	0.8	4.4	-9	i
COC(=O)/C=C1\NCCSC1=O	0.69	-7	-0.5	-1.3	1.7	7	/
Nc1ncc2c(n1)-c1ccoc1CC2	0.62	89*	1.3	-0.2	-133	1	i
CCOCCCN1C(=O)C(=O)N(CC(=O)N2c3ccccc3NC(=O)CC2C)C1=O (stereo unspecified)	0.67	-6	2.4	-0.1	4.9	-1	i
Cc1ccc(C(=O)Oc2ccc(-c3nccc(-c4ccccn4)n3)cc2)cc1	0.75	/	-5.0	0.7	1.7	-2	/
O=C(Cc1ccccc1)NNC(=O)Nc1ccccc1	0.66	/	-3.4	-1.4	-0.7	4	i
COc1cc2c(cc1OC)C(C)=NCC2	0.68	-6	3.9	13	i	-2	i
O=C(O)c1[nH]c2ccc(Cl)cc2c1CCN1C(=O)c2ccccc2C1=O	0.68	0	-8.9	6.6	3.3	7	i
CC(C)(CO)NCc1cccs1	0.63	-11	-4.0	-1.0	1.0	3	i
CC(=O)Nc1cccc(CNCc2cccc(NC(C)=O)c2)c1	0.66	-6	0.1	-3.1	5.9	6	i
C[C@@H]1CN([C@@H](C)CO)C(=O)c2cccc(NC(=O)C3CCCCC3)c2O[C@@H]1CN(C)C(=O)NC1CCCCC1	/	0	-6.3	11	-0.2	-4	i
COc1cccc(N2CC(O)=C(c3ccccc3)C2=N)c1	/	57	3.4	1.5	/	19	/

Remaining list, next part:
SMILES	E coli growth	ALR inh	LANA-H2B inh	HNF4A DNA FP	UCH37 DUB inh	Beta2AR agonist	FGF22 binding
CCNc1nc(SCC(=O)OC)nc(N2CCOCC2)n1	0.7	1	1.5	-3.9	0.1	-1	/
CN(Cc1nc2ccccc2c(=O)[nH]1)C(=O)c1ccc(NC(=O)CSc2nnnn2C)cc1	0.72	0	1.9	2.5	0.6	-6	i
Nc1nc(-c2ccccc2)cs1	0.68	17	-0.1	-2.6	-2.5	-1	/
O=C(/C=C/c1ccc(Cl)cc1)Nc1ccc(CN2CCOCC2)cc1	0.68	-1	5.2	1.6	-0.1	1	i
C#CCOCCOCCOCCNc1nc(N2CCN(C(=O)Cn3cc(CCCN=C(N)N)nn3)CC2)nc(N2CCN(C(=O)Cn3cc(CC(C)O)nn3)CC2)n1 (stereo unspecified)	0.7	/	/	2.7	1.2	-3	/
CCCn1c(SCC(=O)NCC)nc2sc3c(c2c1=O)CCC3	0.68	-2	-4.0	4.3	3.8	-19	i
Nc1ccc(C(=O)c2cccs2)cn1	/	-1	1.9	1.4	/	-5	i
COC(=O)Cn1cnc2scc(-c3ccc(C)cc3)c2c1=O	0.63	1	1.1	-0.2	6.4	4	i
Cc1ccc(NC(=O)/C=C\C(=O)NCC(=O)O)cc1C	0.7	0	-1.9	0.4	1.4	4	/
Nc1c2c(nc3ccccc13)N(c1ccccc1)CC2	0.79	37	-1.2	-1.0	-330	-1	/
CC(O)C(NS(=O)(=O)c1ccc(Cl)cc1)C(=O)OCC(=O)c1ccc2c(c1)NC(=O)CO2 (stereo unspecified)	0.67	/	/	1.8	1.5	8	i
Cc1ccc(CNC(=O)COc2ccc(C)nc2[N+](=O)[O-])cc1	0.67	/	1.4	-2.0	6.0	-20	i
COc1ccc(N2CCN(c3nc(C)c(C)c(=O)[nH]3)CC2)cc1	0.66	16	1.2	-3.8	3.7	2	i
Cc1cc([N+](=O)[O-])ccc1NC(=O)c1cc2ccccc2o1	0.67	/	-0.9	2.6	1.2	-2	i
COc1ccc(NC(=O)CCCNC(=O)Cn2cnc3sc4c(c3c2=O)CCCC4)cc1OC	0.66	0	-2.0	3.0	2.4	-10	i
COc1ccc(-c2c(-c3ccc(OC)c(F)c3)c3ccccc3n2C)cc1	0.71	0	5.9	-0.9	-9.0	7	i
COc1ccc(CCNC(=O)CN2C(=O)NC(c3ccccc3)(c3ccccc3)C2=O)cc1	0.7	30	-5.9	-1.6	-1.0	-6	i
COc1ccc(-n2c(N)cc(=O)[nH]c2=O)cc1	0.67	-8	-1.4	/	4.2	/	/
CC(C)C[C@H]1CNC(=S)N1CC1CCCN1C[C@H](Cc1ccccc1)N1C[C@H](Cc2ccc(O)cc2)N(CC2CCCCCC2)C1=S (stereo partly specified)	/	/	/	-2.8	/	4	i
COc1cc(/C=C/C(=O)O)cc(S(=O)(=O)Nc2cccc(S(=O)(=O)N3CCOCC3)c2)c1OC	0.7	/	4.7	0.4	2.7	1	i

(more compounds)
SMILES	E coli growth	ALR inh	LANA-H2B inh	HNF4A DNA FP	UCH37 DUB inh	Beta2AR agonist	FGF22 binding
CC1=NN(C(C#N)c2ccc(F)cc2)C(c2ccccc2)C1 (stereo unspecified)	0.64	-5	-3.4	-47	-2.4	1	i
Cc1ccc(S(=O)(=O)Oc2cccc(/C=N/n3cnnc3)c2)cc1	/	3	0.3	3.5	/	-6	i
CN(C)c1ccccc1C(=O)c1ccccc1N(C)C	0.61	/	-0.6	3.6	4.9	5	/
CCOC(=O)N1CCN(C(=O)COC(=O)c2ccc([N+](=O)[O-])cc2Cl)CC1	0.7	/	/	1.5	0.3	-3	i
O=C(Nc1ccc(N2CCN(C(=O)c3ccc(Cl)cc3)CC2)cc1)c1cccnc1	0.69	-1	-4.1	-4.2	-1.0	-6	/
Cc1ccccc1-c1nnn(CC(=O)N2CCN(S(=O)(=O)c3ccc(Cl)cc3)CC2)n1	0.82	/	1.1	-4.2	3.7	-1	/
COc1ccc(C(=O)NC2CC3CCCC(C2)N3CC(C)C)cc1 (stereo unspecified)	0.63	-29	-2.0	4.9	4.9	3	i
CC(C)CN1CCC(=O)N(CCC#N)CC1	0.7	0	-1.7	-0.9	0.5	5	i
CN(C)c1ccc(NC(=O)CN2CCC(N3CCCCC3)CC2)cc1	0.67	99*	0.2	2.0	1.8	10	/
Oc1ccc(CNc2ccccc2O)cc1	0.67	74	-1.6	-2.1	4.5	1	/
Cc1ccc(F)cc1NC(=O)CN1CCN(c2ccccn2)CC1	0.71	-10	-0.6	2.0	4.8	-6	/
Cc1cccc(C)c1NC(=O)CNC(=O)Cc1ccc(Br)cc1	0.64	-4	-1.9	-0.3	2.9	7	i
COC(=O)Cn1c(=NC(=O)C(C)C)sc2c(C)cc(C)cc21	0.69	6	-0.4	1.2	0.2	4	i
CCC(=O)N1CCCc2cc(S(=O)(=O)N3CCCc4ccccc43)ccc21	0.68	4	3.4	2.1	3.1	-11	/
Cc1cc(C)n(Cc2ccc(Cl)c(Cl)c2)c(=O)c1S(=O)(=O)c1ccccc1	0.75	/	/	2.7	-32	-6	/
